Screening data from PubChem BioAssay.
Choline anaer gr: inhibitors of anaerobic choline-dependent gram-negative bacterial growth | 55,000 compounds, 0.2% hits | Gram-negative bacterium anaerobic choline minimal medium, absorbance growth; hits give low values; many inactives read as strong as hits in the columns shown | AID 1963822 | calls only;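 active means growth z-score on choline under -2 at 7 or 20 h with little or no fall on glycerol, limits in tiers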;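 further: stock transfer was 300 nL into about 50 µL; the organism is E. coli; final concentration not given here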
Choline anaer gr early: also measured in Choline anaer gr; calls as there; z-score; measured here: choline growth z-score, timepoint 1;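 score of optical density at 7 h as mean of two plates; lower means less growth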
Numbers without * were called inactive; i = inactive; & = joins results of further samples.

Order of values: Choline anaer gr early	Choline anaer gr
- O=C1CSC(c2cn(-c3ccccc3)nc2-c2cccc(Br)c2)N1Cc1ccccc1 (stereo not given)
→ -0.4	i
- CCCCC[C@H]1/C=C/[C@@H]2[C@@H](C/C=C\CCCC(=O)O1)[C@@H](O)C[C@H]2O
→ -1.5	i
- Cc1cc(C)cc(N2CCCn3c2nc2c3c(=O)[nH]c(=O)n2C)c1
→ 1.2	i
- Cc1cc(C)cc(-c2nc(-c3ccc4c(c3)[nH]c(=O)c(=O)n4C(C)C)no2)c1
→ -1.1	i
- C=CCNC(=O)c1cc([N+](=O)[O-])cc2c(=O)[nH]c(Nc3ccc(Cl)c(Cl)c3)nc12
→ 0.35	i
- Cc1cccc(COC(=O)c2nnn(-c3ccc(Br)c(C)c3)c2C)c1
→ 0.78	i
- COc1cccc(N2CC(C)Cn3c2nc2c3c(=O)n(Cc3c(F)cccc3Cl)c(=O)n2C)c1 (stereo not given)
→ 0.73	i
- CCC(CC)C(=O)NCCc1csc(-c2ccc(OC)cc2)n1
→ -1.6	i
- FC(F)(F)c1cc(-c2cccnc2)nc2c(-c3ccc(Cl)cc3)cnn12
→ 1.1	i
- O=C(C1CC1)N1CCC2(CC1)Nc1cc(F)ccc1-n1cccc12
→ -1.6	i
- O=C(c1cc(S(=O)(=O)N2CCSCC2)ccc1Cl)N1CCN(c2ccccc2)CC1
→ 0.52	i
- COc1ccc(S(=O)(=O)Nc2cccc(-c3nnc(Cc4ccc5c(c4)OCO5)o3)c2)cc1
→ 1.1	i
- CCOCc1cnc(C)nc1NCC(=O)c1c(C)[nH]c2cc(C)ccc12
→ 0.38	i
- Cc1nc(-c2ccc(F)cc2)sc1CCNC(=O)CC(C)C
→ -0.11	i
- COc1ccc(CNC(=O)c2ccc(NC(=O)c3nnc(C4CCCCC4)s3)cc2)cc1
→ 0.74	i
- COc1ccc2oc(C)c(C(=O)Nc3ccccc3)c2c1
→ -0.24	i
- Cc1ccccc1C(=O)Nc1cnc2c(C)cccn2c1=O
→ -1.5	i
- CC(CCc1ccc(O)cc1)NCC(O)c1ccc(O)cc1 (stereo not given)
→ 0.48&0.33	i
- CCCNC(=O)C1CCCN(S(=O)(=O)c2cc(-c3noc(CC)n3)cs2)C1 (stereo not given)
→ 1.1	i
- CCOc1c(C)cnc2c1c(=O)n(CC(=O)Nc1ccc3c(c1)OCCO3)c(=O)n2C
→ 0.47	i
- COc1ccc2[nH]cc(CCNC(=O)c3ccc(NC(=O)c4nnc(C)s4)cc3)c2c1
→ 1.9	i
- Clc1ccc(-c2nnc(-c3cccnc3N3CCC4(CC3)OCCO4)o2)cc1
→ -0.42	i
- CCOC(=O)c1c(NC(C)=O)c2c3c(sc2n1CC(=O)Nc1ccc(C)cc1)CCCC3
→ -1.1	i
- CCn1c(=O)n(CC)c2cc(N3CCCCC3)c(NC(=O)NC3CCCC3)cc21
→ 0.25	i
- O=C(CN1C(=O)CCc2cc(S(=O)(=O)N3CCCCC3)ccc21)NC1CC1
→ 0.91	i
- C=CCN(c1nc2nc(C)c(Cl)c(C)n2n1)S(=O)(=O)c1ccc(C)cc1
→ -1.8	i
- CCC(C)NC(=O)c1ccc(CN2C(=O)C(C)=C(c3ccc(C)c(C)c3)S2(=O)=O)cc1 (stereo not given)
→ -0.18	i
- O=c1c(NCCc2ccc(Cl)cc2)nccn1-c1ccc2c(c1)OCO2
→ -0.45	i
- O=C(C1CCN(c2ccccc2)C1=O)N1CCC(N2CCCCC2)CC1 (stereo not given)
→ 0.42	i
- CCCc1nnc2sc(COc3ccc(C)cc3)nn12
→ 0.36	i
- Cc1ccc(NC(=O)C2=CCN(Cc3cccc(C)c3)CC2)cc1
→ -2	i
- Fc1ccc(OCc2nnc3sc(-c4cccnc4)nn23)cc1
→ -2.7	i
- c1ccc(-c2noc(-c3ccc(N4CCCC4)nc3)n2)cc1
→ -0.09	i
- Cc1ccc2c(c1)NC(C(=O)N1CCN(c3cc(C)ccc3C)CC1)NS2(=O)=O (stereo not given)
→ -1.5	i
- COc1ccccc1N1CCN(C(=O)Cn2c(=O)n3nc(-c4ccc(F)cc4)nc3c3ccccc32)CC1
→ -1.9	i
- CC(=O)Nc1ccc(C)cc1-c1nc2ccccc2n(C(C)C(=O)Nc2ccccc2C)c1=O (stereo not given)
→ 0.04	i
- O=S(=O)(c1ccc2c(c1)CCCC2)N1CCN(c2nc3ccccc3n3cccc23)CC1
→ -1.3	i
- CCCCS(=O)(=O)N1CCC(c2cnn(-c3ccccc3)c2)CC1
→ 0.25	i
- COc1ccc(C(=O)CSc2nc3nc[nH]c3c(=O)[nH]2)cc1
→ -0.42	i
- O=C1CCCc2cc(S(=O)(=O)N3CCCC(CN4CCc5ccccc5C4)C3)ccc2N1 (stereo not given)
→ 0.09	i

Single records, as listed above. Order of values: Choline anaer gr early, Choline anaer gr
CCOCc1cnc(C)nc1NCC(=O)c1c(C)[nH]c2cc(C)ccc12 is listed with 0.38, i
O=C1CCCc2cc(S(=O)(=O)N3CCCC(CN4CCc5ccccc5C4)C3)ccc2N1 (stereo not given) is listed with 0.09, i
CC(=O)Nc1ccc(C)cc1-c1nc2ccccc2n(C(C)C(=O)Nc2ccccc2C)c1=O (stereo not given) is listed with 0.04, i
Cc1ccc(NC(=O)C2=CCN(Cc3cccc(C)c3)CC2)cc1 is listed with -2, i
Clc1ccc(-c2nnc(-c3cccnc3N3CCC4(CC3)OCCO4)o2)cc1 is listed with -0.42, i

New compounds follow:
Order of values: Choline anaer gr early	Choline anaer gr
- CCc1ccc(C2C3=C(CC(c4ccccc4)CC3=O)Nc3onc(C)c32)cc1 (stereo not given)
→ 0.35	i
- O=C(NC1CCN(Cc2ccccc2)CC1)C1CCCN(C(=O)c2cccc(Cl)c2)C1 (stereo not given)
→ -0.97	i
- CCc1nc2nc(C)[nH]n2c(=O)c1NC(=O)Nc1ccc2c(c1)OCCO2
→ -1	i
- COC(=O)c1ccc2c(=O)n(CC(=O)N3CCc4ccccc4C3)c(=S)[nH]c2c1
→ 1.3	i
- O=S(=O)(c1cccs1)N1CCC2(CC1)Nc1ccc(Cl)cc1-n1cccc12
→ -0.1	i
- O=C(c1ccoc1)N1CCN(S(=O)(=O)c2cc(-c3noc(C4CCC4)n3)cs2)CC1
→ -1.7	i
- Cc1ccc(-n2nc(C)c3c(=O)n(CC(=O)NCc4ccccc4Br)ccc32)cc1
→ -0.77	i
- Cc1cccc(C)c1OCC(O)Cn1c(C2CC(=O)N(Cc3ccccc3)C2)nc2ccccc21 (stereo not given)
→ 0.03	i
- COc1cccc(CN=C2Nc3ccccc3NC23CCCCC3)c1
→ -0.04	i
- O=C(Nc1ccc(F)cc1F)N1CCC(n2cnc3ccccc3c2=O)CC1
→ -0.37	i
- CC(C)NC(=O)CCCCn1c(=O)c2ccccc2n(CC(=O)Nc2cc(F)ccc2F)c1=O
→ 1.5	i
- CCc1cc(-c2csc(S(=O)(=O)NCCc3ccc(Cl)cc3)c2)on1
→ 0.07	i
- COc1ccc(C(=O)N2CCCC(c3nc(-c4ccc(NC(C)=O)cc4)no3)C2)c(C)c1 (stereo not given)
→ 0.92	i
- CCN(CC)S(=O)(=O)c1ccc2nc(SCC(=O)N3CCc4ccccc43)cc(C)c2c1
→ 1.6	i
- O=c1nc(SCc2ccccc2)c2c(n1C1CCCC1)CCC2
→ 0.18	i
- Cc1nn(CCCC(=O)NCCCN2CCCC2=O)c(=O)c2c(-n3cccc3)n(-c3ccccc3)nc12
→ -0.42	i
- Cc1ccc(OCC(=O)NCC(=O)OCc2cc(=O)n3oc(C)cc3n2)cc1
→ 1.1	i
- Cc1ccc(NS(=O)(=O)c2cc(-c3nc(C(C)(C)C)cs3)cs2)c(Cl)c1
→ 1.3	i
- Cc1ccc(-c2nc(CSCC(=O)Nc3ccccc3)no2)cc1
→ -1.2	i
- COc1ccc(S(=O)(=O)Cc2nc(-c3ccc(Br)cc3)no2)cc1
→ 0.09	i
- Cc1cccc(C2CC(=O)Nc3nc(N)[nH]c(=O)c32)c1 (stereo not given)
→ -1.9	i
- Clc1cccc(Nc2c3c(nc4ncnn24)CCC3)c1
→ -0.95	i
- COc1cccc(NC(=O)NCCn2c(-c3ccc(F)cc3)nc3cccnc32)c1
→ -0.6	i
- c1ccc(CN2CCC3(CCCc4ccccc43)CC2)cc1
→ -1.4	i
- Cn1cc(C(=O)Nc2cccc(Cl)c2)c2[nH]c(=O)n(-c3ccccc3)c(=O)c21
→ 1.5	i
- Cc1cc(C)cc(N2C(=O)CN(CC(C)C)[C@H]3CS(=O)(=O)C[C@H]32)c1
→ -0.11	i
- Cc1ccc(NC(=O)Cn2nnc(C(=O)O)c2C(=O)O)cc1
→ 0.34	i
- O=C(O)Cc1nn(Cc2ccc(Br)cc2F)c(=O)c2ccccc12
→ -1.2	i
- c1cnc2c(c1)ccc1cccnc12
→ -3.1	i
- Cc1cc(C)cc(NC(=O)Cc2csc(C)n2)c1
→ -0.12	i
- CCOc1ccccc1NC(=O)n1nc(C)c2ccccc21
→ 0.57	i
- COc1cccc(-c2nn(Cc3ccccc3F)c(=O)c3noc(C)c23)c1
→ 0.09	i
- CCc1nc2sc(C(C)C)nn2c1S(=O)(=O)NC1CCCCC1
→ -0.38	i
- Cc1noc2ncn(CC(=O)N3CCCC(C)C3)c(=O)c12 (stereo not given)
→ 0.68	i
- O=C(NCc1c(-c2ccc(Cl)cc2)nc2n1CCS2)c1ccc(F)cc1
→ 0.18	i
- CCOC(=O)CNC(=O)N1Cc2c(sc3c2CCCC3)-n2cccc2C1c1ccc(OCC)cc1 (stereo not given)
→ 0.8	i
- c1ccc(-c2nc3ccccc3c3nnc(SCc4cn5ccccc5n4)n23)cc1
→ 1.3	i
- Cc1cc(C)nc(NC(c2ccccc2Cl)c2cc(C)sc2NC(=O)c2ccccc2)n1 (stereo not given)
→ -1.2	i
- O=C(NC1CCCCC1)c1nc[nH]c1C(=O)N1CCC(O)C1 (stereo not given)
→ 1	i
- COc1cc(OC)cc(C(=O)N2CCN(Cc3c[nH]c4ccccc34)CC2)c1
→ -0.01	i
- Cc1[nH]nc2c1C(C(=O)c1ccc3c(c1)OCCO3)CC(=O)N2 (stereo not given)
→ -0.59	i
- CCOc1c(C)cnc2c1c(=O)n(CC(=O)NCc1ccc3c(c1)OCO3)c(=O)n2C
→ -0.76	i
- Cc1ccc(NC(=O)COc2cccc3c(=O)n(C)ccc23)cc1
→ 1.6	i
- Clc1ccc(-c2cc(-c3nc(-c4ccccc4)no3)[nH]n2)cc1
→ -0.17	i
- COc1cccc(NC(=O)NCCc2c(C)nn(C)c2C)c1
→ 0.99	i
- Cc1ccc(C(C)C)c(OCC(=O)Nc2noc(-c3ccccc3)n2)c1
→ -0.79	i
- CCOC(=O)c1c(C)[nH]c(C)c1S(=O)(=O)NCCN1CCc2ccccc2C1
→ -0.55	i
- CCc1nc(CN2C(=O)COc3ccc(S(=O)(=O)N4CCN(C5CCCCC5)CC4)cc32)no1
→ -0.41	i
- C[C@H]1O[C@@H](O[C@H]2[C@@H](O)C[C@H](O[C@H]3[C@@H](O)C[C@H](O[C@H]4CC[C@@]5(C)[C@H](CC[C@@H]6[C@@H]5C[C@@H](O)[C@]5(C)[C@@H](C7=CC(=O)OC7)CC[C@]65O)C4)O[C@@H]3C)O[C@@H]2C)C[C@H](O)[C@@H]1O
→ 0.39	i
- CCCS(=O)(=O)c1nc2ccc(NS(=O)(=O)c3cc(C)c(C)cc3C)cc2s1
→ 0.4	i
- CC(C)c1cc(C2CCCN2C(=O)Nc2ccc(F)cc2F)on1 (stereo not given)
→ 0.05	i
- c1ccc(-c2nc3c([nH]2)CCc2nonc2-3)cc1
→ 0.09	i
- Cc1nn2c(CNS(=O)(=O)c3c(C)noc3C)c(C)nc2s1
→ -0.8	i
- COc1ccccc1CNC(=O)c1n[nH]nc1Nc1cccc(Cl)c1
→ -0.59	i
- Cc1[nH]nc(-c2c(C)sc(C)c2S(=O)(=O)NCc2ccc(Br)cc2)c1C
→ 0.71	i
- CCSc1ncc2c(=O)n(CC(=O)N(C)C3CCCCC3)cnc2n1
→ 0.24	i
- CCc1c(C)nc2nc(Cc3cccc(F)c3)nn2c1NCc1ccc2c(c1)OCO2
→ 1.5	i
- Cc1nn(-c2cc(N3CCCC3)ncn2)c(C)c1CCC(=O)NC1CCCCC1
→ 0.16	i
- CC(C)(C)c1ccc(Cn2c(NC(=O)c3ccccc3)nc3ccccc32)cc1
→ -0.41	i
- Cc1cc(C)n2nc(CN(c3ccc(F)cc3)S(=O)(=O)c3ccc(Cl)cc3)nc2n1
→ -1.2	i

(list continues)
Order of values: Choline anaer gr early	Choline anaer gr
- CC(=O)N1N=C(c2ccc3c(c2)OCO3)OC1c1cccc(Br)c1 (stereo not given)
→ 1.3	i
- Cc1nn(-c2ccc3nncn3n2)c2c1C(c1cc(F)cc(F)c1)CC(=O)N2 (stereo not given)
→ 0.85	i
- COc1ccc(Cl)cc1S(=O)(=O)Nc1ccc(-c2nnc(-c3ccccc3)o2)cc1
→ -0.07	i
- Cc1ccc(CN2CCN(C3CCN(C(=O)NC4CCCCC4)CC3)C(=O)C2=O)cc1
→ -0.25	i
- Cc1nc(S(=O)(=O)Nc2cccc(Cl)c2)cn1C
→ -0.25	i
- COc1ccc(CN2CC(=O)N(c3ccc(C(C)(C)C)cc3)[C@@H]3CS(=O)(=O)C[C@@H]32)cc1
→ -0.5	i
- O=C(CN1CCN(C(=O)Nc2ccc(Cl)cc2)CC1=O)N1CCN(c2ccccn2)CC1
→ -1.1	i
- Cc1cccc(-c2noc(-c3nn(-c4ccc(Cl)cc4)ccc3=O)n2)c1
→ 0.42	i
- CCOc1ccc(-c2ccc(OCCNC(=O)c3ccc(C)cc3)nn2)cc1
→ -0.04	i
- CCCc1nc2nc[nH]n2c(=O)c1NC(=O)c1cccc(C)c1
→ -1.2	i

Reformatted: results already given.
Choline anaer gr early	Choline anaer gr	SMILES
-1.1	i	O=C(CN1CCN(C(=O)Nc2ccc(Cl)cc2)CC1=O)N1CCN(c2ccccn2)CC1
1.3	i	CC(=O)N1N=C(c2ccc3c(c2)OCO3)OC1c1cccc(Br)c1 (stereo not given)
-0.5	i	COc1ccc(CN2CC(=O)N(c3ccc(C(C)(C)C)cc3)[C@@H]3CS(=O)(=O)C[C@@H]32)cc1

Some of the compounds tested; the hit share may differ from the screen's.
